From PubChem BioAssay
TRPML1 blocker: inhibitors of human TRPML1 channel; Q9GZU1; TRPML1-inducible cells, Ca2+ dye fluorescence, FDSS; hits give low values; inhibition of EC80 agonist-evoked calcium signal; activity change, negative = inhibition, % (concentration not given with the values); 390,000 compounds, 0.02% hits; AID 624415; in the data active means activity change below about -50%; inconclusive means about -30% to -50%; inactive means above about -30%;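 further: stimulus is agonist 54-4 at its EC80 concentration; on the % scale 0 is the no-effect control and ±100 the full control effect; the text of the record puts the active cut at -80%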
Target sequence (Q9GZU1 whole entry, looked up): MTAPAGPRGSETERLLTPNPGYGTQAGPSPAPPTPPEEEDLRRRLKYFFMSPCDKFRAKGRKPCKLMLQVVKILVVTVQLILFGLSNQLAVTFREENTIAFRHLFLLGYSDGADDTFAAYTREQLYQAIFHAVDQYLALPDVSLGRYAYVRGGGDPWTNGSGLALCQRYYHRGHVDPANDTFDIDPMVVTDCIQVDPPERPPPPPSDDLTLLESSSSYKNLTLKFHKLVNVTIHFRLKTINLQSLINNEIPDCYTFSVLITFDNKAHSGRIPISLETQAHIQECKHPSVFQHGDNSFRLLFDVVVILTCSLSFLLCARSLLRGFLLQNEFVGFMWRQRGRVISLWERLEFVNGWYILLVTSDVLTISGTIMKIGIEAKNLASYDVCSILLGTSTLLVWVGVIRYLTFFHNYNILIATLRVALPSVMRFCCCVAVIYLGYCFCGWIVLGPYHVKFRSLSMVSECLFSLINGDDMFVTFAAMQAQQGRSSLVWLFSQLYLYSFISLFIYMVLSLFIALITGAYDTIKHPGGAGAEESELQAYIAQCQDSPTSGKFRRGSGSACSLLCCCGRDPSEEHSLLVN
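TRPML1-DL cells, Tet-induced overnight (~16 h, 37 °C) at 1,500 cells/well, were loaded with Ca8 no-wash dye plus quencher for 45-90 min at room temperature. Compounds were pinned during FDSS kinetic reading; agonist 54-4 at EC80 (4 uM final) then added.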
Menin-MLL FL inh: menin-MLL binding inhibition, fluorescein peptide. Fluorescence polarization, fluorescein-MLL peptide displacement from menin. FP activity change, % at 61.4 µM. 290,000 tested, under 10 active; inconclusive = falling polarisation curve, or a change in total fluorescence; inactive = total fluorescence flat and polarisation flat or rising; no compound was filed as active; the % refers to the polarisation; negative = inhibition;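 further: % of control where 0% means no effect; inhibitors lower the polarisation; unlabelled MLL peptide was the positive control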
TRPV1 PAM: potentiators of human vanilloid receptor 1 (TRPV1); TRPV1-expressing cells, Fluo-8 calcium influx, capsaicin EC20 potentiation; host cell line not named in the record; control for the full effect not named in the record; potentiation, % at 8.33 µM; 320,000 compounds, 0.02% hits; active means potentiation above 80%; inconclusive means 30% to 80%; inactive means below 30%; further: 0% is about no effect
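Fluo-8 calcium influx in TRPV1-expressing cells, kinetic read (ex 480/em 520 nm). Compound added and read 3 min for agonist activity, followed by capsaicin at EC20 final and 2 min further read for enhancement.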
PINK1 expr mod: PINK1 expression modulation; PINK1 immunofluorescence, high-content cytometry, 24 h; 410,000 compounds, 0.2% hits; AID 624263; Potency, µM (highest dose often 76.6 µM), inactives show at the top dose activation (PINK1 increase), hits mostly activators; active = well fitted activation curve with a large enough effect; inconclusive = small, poorly fitted or top-dose-only effect; inactive = flat fitted curve, though single readings scatter; cell line not stated here;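 further: potency means the concentration at half of the fitted maximal effect; % of control where 0% means no effect; nearly all actives have a fitted effect of over 65% in size; a mitochondrial uncoupler was the plate control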
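Stable cell line, 250 cells/well, 12 h attachment; compounds pinned at 5 concentrations, 24 h; CCCP control. Fixed with nuclear dye, primary antibodies 12 h at 10 degrees C, secondary plus cell stain; laser-scanning cytometer read.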
ClpP mod: qHTS Assay for Activators of ClpP | Potency, µM (highest dose often 57.5 µM), for inactives: at the highest dose activity change, negative = active | AID 651965, 2013 | 340,000 compounds, 1.9% hits | purified B. subtilis ClpP, FRET peptide cleavage, 20 min; active = well fitted falling curve with a large enough effect; inconclusive = small, poorly fitted or top-dose-only effect; inactive = no such curve, though single readings can be large or run the other way; further: potency means the concentration at half of the fitted maximal effect; the source files actives as falling curves though it sought activators and does not explain the sign; nearly all actives have a fitted effect of over 65% in size; many hits overshoot -100%
Target sequence (P80244 whole entry, looked up): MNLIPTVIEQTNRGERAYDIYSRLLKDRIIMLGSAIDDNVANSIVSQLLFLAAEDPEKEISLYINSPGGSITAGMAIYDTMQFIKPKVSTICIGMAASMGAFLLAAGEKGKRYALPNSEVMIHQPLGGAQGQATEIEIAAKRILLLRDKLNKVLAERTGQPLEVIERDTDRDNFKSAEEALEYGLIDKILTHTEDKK
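ClpP 10 microg/mL final, pH 8 Tris/KCl buffer with BSA, glycerol, Tween-20; compound pinned in; FRET-FV substrate; RT 20 min; Ex320/Em430; ΔFRET vs ADEP 5.8 microM, DMSO, no enzyme.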
Sfp PPTase inh: blocks B. subtilis Sfp PPTase activity; Q9F4F7; Biochemical Sfp PPTase activity, qHTS; Potency, µM, without a hit: max response, negative = inhibition, hits mostly inhibitors; 310,000 compounds, 3.5% hits; AID 1490; active means well fitted inhibition curve with a large enough effect; inconclusive means small, poorly fitted or top-dose-only effect, or another doubt; inactive means no such curve, though single readings can be large or run the other way;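 further: the enzyme is Sfp with the accession as filed and its product quenches rhodamine fluorescence; potency means the concentration at half of the fitted maximal effect; 0% = enzyme reaction without inhibitor and -100% = no enzyme wells; top concentration of the series not given in the record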
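With Hepes-Na pH 7.6 buffer containing 10 mM MgCl2, Sfp (15 nM) modified BHQ-2-YbbR (12.5 uM) using rhodamine-CoA (5 uM). Two reads 30 minutes apart at 525/598 nm yielded each well's rate.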
TRPML1 agonist: human mucolipin-1 channel agonism. Q9GZU1. TRPML1-expressing cells, Ca2+ dye fluorescence, FDSS; host cell line not named in the record; reference of the full effect not given here. activation, % (concentration not given with the values). 410,000 compounds, 0.12% hits; in the data active = activation above about 50%; inconclusive = about 30% to 50%; inactive = below about 30%; further: 0% is about no effect; the text of the record puts the active cut at 80%
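In this qHTS format, compounds were pin-transferred onto Ca8-dye-loaded TRPML1-DL cells induced with Tet overnight, and intracellular Ca2+ fluorescence was recorded kinetically for 110 s after a 10 s baseline. A subsequent 4uM final 54-4 (EC80) addition followed by a second 110 s read served as the antagonist phase.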
* hit, by the source's call; ? = inconclusive; . = no result given; [ ] = another dose, or the depositor's remark.

No.	molecule	TRPV1 PAM	Sfp PPTase inh	TRPML1 blocker	Menin-MLL FL inh	PINK1 expr mod	ClpP mod	TRPML1 agonist
1	COc1ccc(-c2csc3ncnc(Nc4cc(OC)cc(OC)c4)c23)cc1	.	.	14	.	0.5%	?	0.7
2	CN(C)CCNC(=O)C(=O)NCC1OCCN1S(=O)(=O)c1ccc2c(c1)OCCO2 (stereo not given)	-10	2%	-6	-1.2	-2.0%	.	-0.2
3	CCOCc1ccccc1Nc1ncnc2onc(-c3ccc(Cl)cc3)c12	.	.	-13	.	0.1%	-4.7%	7.9
4	O=C(Nc1cc(Cl)ccc1-n1cncn1)c1ccc(Br)o1	1	.	14	.	-0.9%	-3.8%	0.4
5	COc1ccc2[nH]c3c4c(ccc3c2c1)C(=O)C=CC4=O	15	6.3µM*	0	12	-3.1%	0.3%	1.0
6	O=C(C/C=N/OCc1c(Cl)cccc1Cl)c1ccccc1	-5	-16%	12	-1.1	5.0%	0.9%	0.1
7	COC(=O)c1cc2ccc(OC)c(OC)c2c(=O)s1	13	19%	5	0.7	-0.4%	-6.9%	-0.3
8	CC(=O)OCC(C)n1c(=O)c2ccccc2n1C(C)=O (stereo not given)	.	.	.	.	-0.6%	7.1%	-0.7
9	O=C1CC(c2nc3ccccc3n2CCC2CCCCC2)CN1c1ccccc1Cl (stereo not given)	.	.	4	.	1.1%	-16%	0.9
10	Nc1ncc(Br)cc1S(=O)(=O)Nc1ccccc1F	1	13%	-5	.	0.1%	.	0.3
11	O=S(=O)(Nc1nc2n(n1)C(c1ccc(F)cc1)C=C(c1ccccc1)N2)c1ccccc1 (stereo not given)	.	.	-11	.	-0.7%	4.1%	0.3
12	CC(=O)c1ccc(NC(=S)NCCc2cccc(Cl)c2)cc1	1	4%	16	0.2	?	.	0.0
13	Cc1nnc(-n2cnc3ccccc32)c2ccccc12	5	25%	4	6.2	-2.0%	6.8%	-0.1
14	COc1ccccc1-c1ccc(SCC(=O)Nc2cc(C)on2)nn1	?	-1%	21	6.4	-1.2%	.	3.2
15	O=C(CCCN1C(=O)/C(=C\c2cccc(Br)c2)SC1=S)Nc1ccc(C(=O)O)cc1	.	.	-8	.	2.2%	-0.1%	-0.5
16	CC(=O)Nc1ccc(SCC(Cc2ccccc2)N2CCN(CCc3ccccc3)CCC2=O)cc1 (stereo not given)	.	-21%	-12	-0.2	.	.	0.6
17	COc1cccc(N(C(C)=O)c2nc(C)cc(C)c2C#N)c1	?	-11%	-22	3.3	-1.3%	1.1%	0.3
18	O=C(OCc1csc(-c2ccccc2)n1)c1cccs1	-10	?	-16	-0.6	-0.4%	-2.6%	1.2
19	CCOC(=O)CC(=O)CSc1nc2c(cc1C#N)CCC2	7	-22%	-10	6.3	1.1%	49%	-0.5
20	CCC(C)NC(=O)c1ccc2c(Cl)c3c(nc2c1)CCC3 (stereo not given)	-9	-8%	.	0.1	2.2%	1.8%	.
21	O=C(O)CCN1C(=O)C2C3C=CC(C2C1=O)C1C(=O)N(CCC(=O)O)C(=O)C31 (stereo not given)	-7	11%	4	-1.9	-2.1%	-3.2%	2.5
22	COc1ccc(Nc2cc(C)nc(-n3nc(C)cc3C)n2)cc1	6	19%	-7	5.2	9.1%[38.3 µM]	0.0%	0.0
23	CC(NC(=O)c1cc(F)c(F)cc1Cl)c1ccncc1 (stereo not given)	2	1%	36	2.9	-1.0%	-1.0%	0.0
24	CCC1CCCCN1Cc1ccc(CNC(=O)CCc2nnc3ccc(N4CCCCC4)nn23)o1 (stereo not given)	-1	9%	-2	-3.3	-0.2%	-4.9%	-0.7
25	CCC(C)C(=O)Nc1nnc(SCC(=O)Nc2ccc(F)cc2)s1 (stereo not given)	-3	1%	1	3.1	-1.2%	-0.6%	1.2
26	O=C(/C(N=Nc1cccc([N+](=O)[O-])c1)=C(/O)c1ccc(Br)cc1)C(F)(F)F	-3	12%	.	1.5	.	.	.
27	Cc1nc(CNS(=O)(=O)c2ccc(F)cc2)cs1	1	11%	4	-0.1	1.0%	-1.3%	-0.9
28	C=CCN(Cc1nc(-c2ccccc2)no1)C(=O)c1ccco1	?	9%	40	-6.0	-1.2%	.	0.7
29	Cc1cc(C)n(-c2ccc(C(=O)OCc3nnc(-c4ccccc4)o3)cc2)n1	7	-1%	-1	0.5	2.3%	35µM*	0.0
30	NC(N)=NS(=O)(=O)c1ccc(N/C=C/C(=O)c2ccc(Cl)c(Cl)c2)cc1	11	10%	10	12	-0.2%	-2.1%	0.8

Taken from the listing for reference:
No.	molecule	TRPV1 PAM	Sfp PPTase inh	TRPML1 blocker	Menin-MLL FL inh	PINK1 expr mod	ClpP mod	TRPML1 agonist
26	O=C(/C(N=Nc1cccc([N+](=O)[O-])c1)=C(/O)c1ccc(Br)cc1)C(F)(F)F	-3	12%	.	1.5	.	.	.
27	Cc1nc(CNS(=O)(=O)c2ccc(F)cc2)cs1	1	11%	4	-0.1	1.0%	-1.3%	-0.9
28	C=CCN(Cc1nc(-c2ccccc2)no1)C(=O)c1ccco1	?	9%	40	-6.0	-1.2%	.	0.7
29	Cc1cc(C)n(-c2ccc(C(=O)OCc3nnc(-c4ccccc4)o3)cc2)n1	7	-1%	-1	0.5	2.3%	35µM*	0.0
30	NC(N)=NS(=O)(=O)c1ccc(N/C=C/C(=O)c2ccc(Cl)c(Cl)c2)cc1	11	10%	10	12	-0.2%	-2.1%	0.8

(list continues)
No.	molecule	TRPV1 PAM	Sfp PPTase inh	TRPML1 blocker	Menin-MLL FL inh	PINK1 expr mod	ClpP mod	TRPML1 agonist
31	COCCCNCCCCOc1ccc(Br)cc1Cl	-4	-16%	9	2.7	2.8%	-22%	2.0
32	C=C(C)CSC1=C(C#N)C(c2ccccc2Cl)CC(=O)N1 (stereo not given)	-5	45µM*	-3	0.7	4.0%	-5.3%	0.0
33	COc1cc(CC(CC(=O)O)CC(C)OCc2ccccc2)cc(OC)c1 (stereo not given)	12	6%	-8	-0.5	-1.8%	3.4%	0.0
34	COc1ccc(Br)cc1CNC(=O)c1cc(=O)[nH]c2ccc(S(=O)(=O)N3CCCCC3C)cc12 (stereo not given)	.	.	-19	.	0.8%	24%	1.1
35	COc1ccc(NC(=O)CC2C(=O)N(c3ccccc3)C(=O)N2CCc2sccc2C)cc1 (stereo not given)	.	.	-10	.	0.2%	-0.6%	1.4
36	Cc1nn(CC(=O)NCCc2ccccc2Cl)c(=O)c2nn(-c3ccccc3)c(C)c12	.	.	-9	.	0.5%	-5.9%	0.4
37	CCOC(=O)c1csc(NC(=O)CSc2nnnn2-c2ccc(OC)c(OC)c2)n1	5	19%	-11	-0.4	20%	2.0%	0.2
38	O=C1N(Cc2cccnc2)C[C@@H]2C[C@@H](c3cccc(C(F)(F)F)c3)N3CCC[C@@]123	0	13%	9	5.1	0.8%	.	-0.4
39	CCCCC(=O)Nc1ccc(NC(=O)c2ccc3c(c2)OCO3)cc1OC	-31	11%	10	2.1	0.0%	-5.4%	0.1
40	CN(Cc1ccccn1)Cc1nc(-c2ccc(Cl)cc2)no1	16	-11%	.	6.5	1.4%	-9.3%	.
41	CSC1=N/C(=C\c2ccc(Cl)cc2)C(=O)N1N(C)C	-1	-7%	-9	1.4	8.1%	.	0.2
42	Cc1cccc(NC(=O)C2CC(=O)N(Cc3ccccc3)C2)n1 (stereo not given)	-9	.	-5	.	-0.3%	-2.4%	-0.2
43	COc1ccc(-c2cc(NC=O)c3ncc(-c4cccc(C(=O)NCCN(C)C)c4)n3c2)cn1	.	.	.	.	0.0%	-11%	-0.2
44	COC(=O)c1ccc(N2CCOCC2)c(NC(=O)c2ccco2)c1	-13	12%	3	.	0.6%	0.0%	-0.1
45	O=C(NCc1ccc(F)cc1)Nc1cccc([N+](=O)[O-])c1	-4	20%	-15	-0.8	1.2%	-0.7%	0.5
46	O=c1oc(CCCO)cc2ccccc12	.	.	-5	.	1.6%	-22%	-0.4
47	NC(=O)NC(=O)CSc1cccc(C(F)(F)F)c1	11	3%	0	2.1	.	-0.2%	0.1
48	CCOc1ccc(Cn2nnc(C(=O)NCc3ccccc3)c2N)cc1	2	10%	15	3.3	2.7%	0.9%	11
49	O=C(NCc1cccnc1)c1ccccc1-c1ccccc1	-3	14%	6	0.5	-1.1%	.	0.4
50	CC(C)n1cc(CN2CCCC(CNS(=O)(=O)c3cccc4cccnc34)C2)cn1 (stereo not given)	15	3%	-5	-0.5	0.0%	-0.5%	-0.6
51	CC(=O)Nc1cc(C(=O)NCc2ccc(F)cc2)ccc1Sc1ccc(F)cc1	.	.	6	.	0.1%	0.2%	-0.6
52	CCOc1cc(/C=N/Nc2ccc(S(=O)(=O)Nc3ccccc3C(=O)O)cc2[N+](=O)[O-])cc(Cl)c1O	.	.	-2	.	0.6%	-1.7%	0.2
53	NS(=O)(=O)c1ccc(CCNC(=O)c2ccc(Cl)c(S(=O)(=O)NCc3ccco3)c2)cc1	.	.	8	.	-1.1%	.	0.8
54	Oc1ccccc1CNCC12CC3CC(CC(C3)C1)C2	19	-18%	-1	-2.1	11%	0.8%	0.1
55	Fc1ccc(-c2ccc3nccn3c2)cc1Cl	.	.	.	.	0.6%	-10%	-0.9
56	CCn1c(SCc2cccc(F)c2)nnc1-c1cccnc1	-5	6%	46	0.7	4.4%	.	-0.3
57	Cc1cc(Cl)ccc1OC(C)C(=O)Nc1cccc(S(=O)(=O)N2CCOCC2)c1 (stereo not given)	.	.	6	.	3.9%	-0.2%	0.9
